Mtb hypoxia rep = PubChem AID 1159583. hit rate 0.1% among 300,000. fluorescence inhibition, % (concentration not given with the values). M. tuberculosis hypoxia-regulated fluorescent reporter, fluorescence;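 active = 35 to 45% if threefold the growth effect, above 45% if 1.5-fold the growth effect; inactive = the rest, general growth blockers included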;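 also: wells of about 50 µL received 100 nL stock; 0% = vehicle wells and 100% = reference inhibitor wells; whole bacteria with a GFP reporter of the hypoxia response; strong numbers were not always called active; many hits fall short of the cut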
Sa RN4220 lethal = growth inhibition of S. aureus RN4220, primary screen, OD600; 16 h; inhibition, % (no concentration beside the values); AID 1259311, 2017; hit rate 0.33% among 330,000;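 active = z-score of -3 or lower and OD600 up to 0.18 on both plates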;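 also: plate controls were untreated cells for no effect and reference antibiotic for full effect; stock transfer was 100 nL into about 80 µL; one replicate is shown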
BJeLR viability = MLPCN primary cell-based screen for lethality selective to Ras in HRASV12 cells; inhibition, % (concentration not given with the values); AID 1554, 2009; BJeLR (HRASV12) viability, CellTiter-Glo ATP luminescence, 48 h; reference of the scale not given here; hit rate 0.17% among 300,000;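 active = replicate mean above 50%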;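 also: 50 nL library stock added to about 25 µL; numbers are from one replicate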
PrP 5UTR inh = inhibition of PrP 5' UTR reporter expression | AID 488862, 2010 | hit rate 0.35% among 340,000 | inhibition, % (concentration not given with the values) | cell-based PrP 5' UTR mRNA reporter, plate reader;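 active = every replicate at 50% or more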;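 also: 0 = median of the neutral control wells; tested in H4 reporter cells; numbers are from one replicate; inactives centre near -14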
Autofluor counter = flagged as autofluorescent in microsphere protease counterscreen; compound autofluorescence counterscreen, microsphere flow cytometry; stronger effect = higher value; fluorescence intensity (test concentration not listed); hit rate 3.1% among 360,000; AID 624483;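 active = at least 3 SD above the mean of all compounds, about 16000 in these data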;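 also: 100 nL of 1 mM stock went into each well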
ugtP null kill = growth inhibition of ugtP-null S. aureus, primary screen, RN4220 ugtP deletion, OD600; growth inhibition, % (concentration not given with the values); 16 h; some inactives read as strong as hits; hit rate 0.54% among 330,000; AID 1259309, 2017;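 active = z-score under -3 and OD600 up to 0.15 on both plates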;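 also: plate controls were untreated wells for no effect and antibiotic for full effect; wells of about 80 µL received 100 nL stock; the first replicate is given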
Mtb hypoxia rep growth = second read-out of Mtb hypoxia rep, no call of its own (marks repeat the call); growth inhibition, %; measured here: M. tuberculosis growth (absorbance);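 0% = vehicle and 100% = reference antibiotic; read after six days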
* marks the source's active call; other numbers are inactive results; · = not tested or not shown.

Sequence of screens – Mtb hypoxia rep growth	Autofluor counter	BJeLR viability	Sa RN4220 lethal	ugtP null kill	Mtb hypoxia rep	PrP 5UTR inh
> O=S(=O)(O)c1ccc(SCc2ccccc2)nc1
  5	4854	10	2.4	11	-9	-7
> O=C(NCCCn1cccn1)C1CCC(=O)N(Cc2cccc(C(F)(F)F)c2)C1 (configuration not stated)
  ·	5570	1	·	·	·	-20
> CCC(c1nnnn1Cc1ccc2c(c1)OCO2)N1CCN(c2ccc(F)cc2)CC1 (configuration not stated)
  3	4895	-3	0.6	3	2	0
> C=CCC[C@@H](Cc1ccc(F)cc1)C(=O)OC[C@@H](Cc1c[nH]c2ccccc12)NC(=O)[C@@H](CC=C)CC(=O)N(CCO)Cc1ccccc1
  -1	3899	·	-5.4	-12	-6	-5
> O=C(CN1C(=O)NC2NC(=O)NC21)NN=Cc1ccccc1O (configuration not stated)
  4	·	·	6.8	-4	15	·
> Cn1cccc1CNCc1ccccc1Cl
  1	18677*	4	4.5	-2	-6	-13
> O=C1C=C(C=Cc2ccccc2)CC(c2ccc3c(c2)OCO3)C1 (configuration not stated)
  15	·	·	2.1	17	13	·
> CCOc1ccccc1/C=C(\C#N)C1=CCCC1
  3	3721	-3	4.9	3	3	-18
> O=C(CC(=O)NC1CCCCC1)N/N=C/c1ccccc1Cl
  ·	2551	-6	·	·	·	-4
> COc1ccccc1NC(=O)COC(=O)c1cc2c(s1)CCC2
  -4	5984	·	6.4	4	2	-5
> Cc1ccc(C(=O)NCC(=O)NC23CC4CC(CC(C4)C2)C3)cc1
  -4	4648	-1	1.8	6	2	0
> CC1(C)C2CCC1(C)C(NC(=O)/C=C/c1ccccc1)C2 (configuration not stated)
  ·	3432	4	4.4	5	·	-9
> CCOC(=O)c1ccc(NC(=O)c2nc[nH]c2C(=O)N2CCC(C)CC2)cc1
  5	4021	11	2.0	-1	4	-9
> Cn1nc(C(=O)NCCc2ccc3c(c2)OCCO3)c2ccccc2c1=O
  2	6483	·	4.3	2	-6	-21
> O=S(=O)(c1ccc(NC2CCCCC2)cc1)N1CCOCC1
  -2	3532	8	3.9	6	3	1

Sequence of screens – Mtb hypoxia rep growth	Autofluor counter	BJeLR viability	Sa RN4220 lethal	ugtP null kill	Mtb hypoxia rep	PrP 5UTR inh
> Cc1ccc(N2CCN(CC(O)COC3CCCCC3)CC2)cc1 (configuration not stated)
  0	9258	0	1.0	1	-1	2
> CC(Sc1nc(N)cc(=O)[nH]1)C(=O)NCC(=O)Nc1ccc(F)c(F)c1F (configuration not stated)
  -4	2872	·	1.7	10	1	1
> Cc1nnc(NC(=O)CSc2nnc(Cc3cccn3C)n2C)s1
  6	5104	7	-14	2	-2	5
> Cc1ccc(C(=O)/C=C/Nc2cccc(O)c2)cc1
  6	4812	4	3.0	-1	7	-39
> O=C(c1ccc2c3n(nc2c1)-c1ccccc1CO3)N1CCCCC1
  6	3299	60*	0.4	0	4	-2
> CCN(CC)CCNC(=O)c1ccc(NC(=O)/C=C/c2ccc3ccccc3n2)cc1
  -30	·	10	0.5	5	10	-4
> CC(=O)c1c(O)c2ccccc2n(C2CCCCC2)c1=O
  -10	4731	-10	5.8	0	0	-17
> Cc1cc(=O)[nH]c(SCC(=O)NN(c2ccccc2)c2ccccc2)n1
  -1	4738	-8	1.7	7	-5	-4
> CC(C)N1C(=O)S/C(=C/c2cccnc2)C1=O
  8	22160*	-2	4.8	4	10	-2
> O=S(=O)(c1ccccc1)C(C=NO)/C=C/c1ccccc1 (configuration not stated)
  -29	·	·	0.2	-3	-18	·
> Cc1cccn2c(=O)c3cc(C(=O)NCCCOC(C)C)sc3nc12
  -8	3307	0	-1.7	12	0	-29
> CC1CN(C(C)CO)C(=O)c2cccc(NC(=O)C3CC3)c2OC1CN(C)CC1CCCCC1 (configuration not stated)
  10	·	·	1.4	5	10	·
> CCOC1=NC(=C(c2ccccc2)c2ccccc2)OC1=O
  11	2914	·	0.0	2	2	-32
> COc1cccc(CC(=O)Nc2nc(-c3ccc(F)c(F)c3)cs2)c1
  6	5784	2	-3.9	17	-7	1
> CC1C(=O)N(Cc2cccc(F)c2)c2ccccc2N1C(=O)c1ccccc1 (configuration not stated)
  14	3681	18	3.8	14	7	-22

Record cards, as listed above. Order of screens: Mtb hypoxia rep growth | Autofluor counter | BJeLR viability | Sa RN4220 lethal | ugtP null kill | Mtb hypoxia rep | PrP 5UTR inh
O=C(CC(=O)NC1CCCCC1)N/N=C/c1ccccc1Cl reads · | 2551 | -6 | · | · | · | -4
Cn1cccc1CNCc1ccccc1Cl reads 1 | 18677* | 4 | 4.5 | -2 | -6 | -13
CC1CN(C(C)CO)C(=O)c2cccc(NC(=O)C3CC3)c2OC1CN(C)CC1CCCCC1 (configuration not stated) reads 10 | · | · | 1.4 | 5 | 10 | ·

The results go on:
Sequence of screens – Mtb hypoxia rep growth	Autofluor counter	BJeLR viability	Sa RN4220 lethal	ugtP null kill	Mtb hypoxia rep	PrP 5UTR inh
> CC(=O)Nc1cccc(NC(=O)C2CCCN2C(=O)Nc2ccc(C)cc2)c1 (configuration not stated)
  8	8471	0	5.4	-11	12	-1
> CN(C(=O)COC(=O)c1ccc(-c2ccc(O)cc2)cc1)C1CCS(=O)(=O)C1 (configuration not stated)
  18	3944	13	-0.6	-11	-1	-21
> Cc1cc(C(=O)N2CC(C)CC(C)C2)c(C)o1 (configuration not stated)
  8	4223	·	3.5	4	10	-8
> CN(C)C(=O)N1CCCC(C(=O)NCc2ccccc2Cl)C1 (configuration not stated)
  2	9796	3	1.6	2	5	-15
> CC1CCN(C(=O)C2CCN(S(=O)(=O)c3cccc4nsnc34)CC2)CC1
  -5	5771	-7	-0.8	1	4	-18
> Cc1nc2c(C(=O)NCc3cccs3)cnn2c(C)c1Cc1ccc(F)cc1
  9	·	2	-2.2	-18	4	·
> O=C(COc1ccccc1Cl)Nc1cc(NC(=O)COc2ccccc2Cl)cc(C(=O)O)c1
  2	3199	0	4.7	3	4	-1
> CCc1nccn1-c1cc(C(C)(C)C)nc2c(-c3ccc(Cl)cc3)cnn12
  -2	2552	-3	-6.9	-6	7	-12
> Cc1c2cnn(CC(=O)NCCCN3CC(C)CC(C)C3)c(=O)c2c(C)n1Cc1ccc(Cl)cc1 (configuration not stated)
  -11	5170	-9	1.1	6	4	10
> CCOc1ccccc1OCC(=O)N/N=C(\C)Cc1ccc(OC)cc1
  ·	2167	-6	·	·	·	-5
> c1ccc2c(c1)nc1n2CN(Cc2ccc3c(c2)OCO3)CN1
  4	5753	5	2.2	-1	-3	-36
> COc1ccc(OCC(=O)N2CC3(C)CC2CC(C)(C)C3)cc1 (configuration not stated)
  13	3067	2	5.9	8	9	-16
> CC(=O)c1c(C)n(-c2ccc(N(C)C)cc2)c2ccc(OCC(N)=O)cc12
  ·	2693	0	-0.8	5	·	-2
> CC(C)CCNC(=O)CN(CC1CCCO1)C(=O)CCC(=O)Nc1ccccn1 (configuration not stated)
  ·	2242	-2	-0.4	0	·	-7
> O=C(NC1CC1)c1ccc(Cl)c(S(=O)(=O)N2CCOCC2)c1
  10	3480	8	2.4	10	13	-22

Sequence of screens – Mtb hypoxia rep growth	Autofluor counter	BJeLR viability	Sa RN4220 lethal	ugtP null kill	Mtb hypoxia rep	PrP 5UTR inh
> O=C(NCc1ccco1)c1ccccc1SCC(=O)N1CCCC1
  -5	4073	·	-5.9	3	5	-16
> COc1ccc(Nc2nnc(C)c(=O)[nH]2)cc1
  -1	8233	-12	2.3	6	5	-27
> O=C(COc1ccccc1-c1ccccc1)NN=Cc1ccncc1
  4	·	·	2.0	4	0	·
> CCN1C(=O)C2C(c3ccc(C)cc3)N3C(=O)N(c4ccc(OC)cc4)C(=O)[C@@]3(Cc3ccccc3)C2C1=O (some centres not stated)
  11	·	·	6.8	5	15	·
> CCC(=O)Nc1ccc(C(=O)NNC(=O)c2ccc(C)cc2)cc1
  7	3634	-5	3.3	7	13	-13
> COc1ccc2cc(/C=N/NC(=O)c3ccc(CN(c4ccc(C)c(C)c4)S(C)(=O)=O)cc3)c(Cl)nc2c1
  ·	9774	-11	·	·	·	-14
> O=C(COc1cc(O)c2c(=O)cc(-c3ccccc3)oc2c1)c1cccc([N+](=O)[O-])c1
  -3	4360	3	3.2	1	-1	-130
> CC(=O)NCCc1nc2ccccc2n1Cc1ccccc1
  9	4616	3	3.3	1	12	-11
> Cc1nc(SCC(=O)Nc2ccc(OCc3ccccc3)cc2)n[nH]1
  ·	4793	2	·	·	·	-25
> Cc1ccc(CNC(=O)Cc2csc(Nc3nc(=S)[nH]c4ccccc34)n2)cc1
  4	·	-7	-0.5	-8	-1	·
> CCC(=O)Nc1ccc(N2CCCCC2)cc1
  -3	9356	-7	2.3	12	10	-21
> Cc1ccc(S(=O)(=O)NCC23C=CC(O2)C2C(=O)N(c4ccccc4)C(=O)C23)cc1 (configuration not stated)
  4	3047	4	-8.3	-7	2	-9
> O=C(NNC(=O)c1ccccc1OCc1ccccc1Cl)c1csc(N2CCOCC2)n1
  17	6369	11	2.6	0	14	-7
> CCOC(=O)c1nc(NNC(C)=O)sc1C
  11	4123	-2	6.7	3	9	-20
> COc1ccc(N=Nc2c(C)n[nH]c2C)cc1
  1	4903	-7	4.1	7	7	-29

Sequence of screens – Mtb hypoxia rep growth	Autofluor counter	BJeLR viability	Sa RN4220 lethal	ugtP null kill	Mtb hypoxia rep	PrP 5UTR inh
> CC(C)CN1C(=O)C(=O)N(CC(=O)c2ccc[nH]2)C1=O
  -7	5157	-3	-4.6	-5	-9	-11
> Cc1nc(-c2c(C(F)(F)F)noc2-c2ccc(O)cc2O)cs1
  -2	17928*	2	1.7	7	-2	-9
> CCOc1ccc(C(=O)Nc2cccc3ncccc23)cc1Cl
  11	2889	-7	-3.3	15	11	-40
> Cc1ccc(OCCN2CCCCCC2)c(C)c1
  11	2990	-10	2.8	7	6	-16
> NC(=O)C1CCN(CC(=O)N2c3ccccc3CCc3ccccc32)CC1
  6	4977	-6	-0.7	1	7	-1
> CCOC(=O)c1c(C=O)c(C)n(Cc2ccc(Cl)cc2)c1C
  5	9214	-10	4.7	1	9	-12
> O=C(CCNC(=O)Cn1cnc2ccccc2c1=O)NCC1CCCO1 (configuration not stated)
  -1	5634	-19	2.6	2	-11	-15
> Cc1ccccc1N/C(=C(/C(Cl)=C(Cl)Cl)[N+](=O)[O-])n1nnc2ccccc21
  5	10079	-3	15	-8	3	-15
> CCCCCCOc1ccc(C(=O)n2cnc(N)n2)cc1
  8	21741*	5	4.4	8	1	-16
> CCCCn1c(N)c(N(C(=O)CSc2nncn2-c2ccccc2)C2CCCC2)c(=O)[nH]c1=O
  0	4227	·	4.6	3	7	4
> O=C(Nc1nc(-c2ccccn2)cs1)c1ccc2c(c1)OCCO2
  8	6149	-1	6.5	5	-1	-26
> COCCN1C(=NCCCOC(C)C)N[C@@H](c2ccccc2)C(C(=O)OC)=C1C
  ·	3072	5	·	·	·	-10
> O=C(COc1ccccc1)NC(=S)N1CCc2ccccc21
  3	2184	5	4.3	3	14	-36
> CNC(=O)CN1C(=O)CSc2ncccc21
  ·	3974	-4	-1.8	1	·	-12
> CCC(=O)N1CCN(c2ccccc2NC(=O)c2cccs2)CC1
  -6	·	-1	3.1	6	-4	-17

Screening data: PubChem BioAssay, several laboratories

No enrichment for hits; any-hit rate near 4%.
